Screens (PubChem)
D2 PAM – positive allosteric modulators of human D2 dopamine receptor. P14416. DiscoveRx D2 beta-arrestin cells, luminescence, 90 min; 100% = 57 uM dopamine signal. potentiation, % (concentration not given with the values). 360,000 compounds, 0.23% hits. AID 624464; active = potentiation of 50% or more; inconclusive = 30% to 50%; inactive = 30% or less;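 further: tested on top of an EC20 dose of dopamine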
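D2 cells co-treated with compound plus 50 nM dopamine (EC20) for 90 min at 37 deg C to detect potentiation. Beta-arrestin recruitment was read as enzyme-fragment luminescence after 1 h at ambient temperature. Full response was set by 57 uM dopamine.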
TRPML1 inh – inhibitors of human TRPML1 channel; AID 624415; TRPML1-inducible cells, Ca2+ dye fluorescence, FDSS; stronger effect = lower value; inhibition of EC80 agonist-evoked calcium signal; activity change, negative = inhibition, % (no concentration beside the values); 390,000 compounds, 0.02% hits; in the data active means activity change below about -50%; inconclusive means about -30% to -50%; inactive means above about -30%;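 further: stimulus is agonist 54-4 at its EC80 concentration; on the % scale 0 is the no-effect control and ±100 the full control effect; compound concentration not given in the record; the text of the record puts the active cut at -80%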
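TRPML1-DL cells, Tet-induced overnight (~16 h, 37 °C) at 1,500 cells/well, were loaded with Ca8 no-wash dye plus quencher for 45-90 min at room temperature. Compounds were pinned during FDSS kinetic reading; agonist 54-4 at EC80 (4 uM final) then added.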
PINK1 expr mod – PINK1 expression modulation; 410,000 compounds, 0.2% hits; Potency, µM (series often up to 76.6 µM), for inactives: at the highest dose activation (PINK1 increase), hits mostly activators; PINK1 immunofluorescence, high-content cytometry, 24 h; active = well fitted activation curve with a large enough effect; inconclusive = small, poorly fitted or top-dose-only effect; inactive = flat fitted curve, though single readings scatter; cell line not stated here;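 further: potency means the concentration at half of the fitted maximal effect; % of control where 0% means no effect; nearly all actives have a fitted effect of over 65% in size; a mitochondrial uncoupler was the plate control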
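Decision-based qHTS: stable cells, 24 h exposure to five compound concentrations, CCCP as control. Fixed cells stained for PINK1 plus nuclear, mitochondrial and cell markers, cytometer read.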
D2 ag – activates the human D2 dopamine receptor | DiscoveRx PathHunter D2 beta-arrestin, luminescence, 90 min; 100% = 57 uM dopamine signal | activation, % (test concentration not listed) | 360,000 compounds, 0.084% hits; in the data active = activation above about 40%; inconclusive = about 15% to 40%; inactive = below about 15%; further: compound concentration not given in the record; the text of the record calls up to 30% inactive
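Agonist mode: compounds alone added to overnight-plated D2 PathHunter cells for 90 min at 37 C, with 57 uM final dopamine (EC100) defining full response. Beta-arrestin recruitment detected by chemiluminescent reagent, read after 1 h at ambient temperature.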
Six1-Eya2 blk – Six1/Eya2 interaction inhibition | Q15475+O00167 | AlphaScreen GST-Six1/His-Eya2 binding, biochemical; stronger effect = lower value; control for the full effect not named in the record | activity change, % (concentration not given with the values) | 360,000 compounds, 0.56% hits | AID 651725; in the data active = activity change below about -65%; inconclusive = about -30% to -65%; inactive = above about -30%; further: on the % scale 0 is the no-effect control and ±100 the full control effect
Target sequence (O00167 whole entry, looked up): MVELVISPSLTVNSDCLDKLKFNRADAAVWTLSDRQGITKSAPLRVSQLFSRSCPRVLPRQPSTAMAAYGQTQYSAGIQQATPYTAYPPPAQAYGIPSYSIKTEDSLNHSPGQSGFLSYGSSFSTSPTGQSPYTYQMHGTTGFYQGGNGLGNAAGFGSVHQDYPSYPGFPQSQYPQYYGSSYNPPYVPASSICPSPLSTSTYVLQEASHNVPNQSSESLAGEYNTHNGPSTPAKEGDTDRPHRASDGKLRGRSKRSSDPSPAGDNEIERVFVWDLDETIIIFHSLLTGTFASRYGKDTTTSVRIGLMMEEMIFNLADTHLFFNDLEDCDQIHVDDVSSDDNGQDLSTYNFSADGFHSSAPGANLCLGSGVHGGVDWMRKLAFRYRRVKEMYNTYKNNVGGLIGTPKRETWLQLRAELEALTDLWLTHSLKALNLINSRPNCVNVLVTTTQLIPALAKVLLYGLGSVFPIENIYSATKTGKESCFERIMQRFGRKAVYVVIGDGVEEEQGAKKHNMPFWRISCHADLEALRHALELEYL
Target sequence (Q15475 whole entry, looked up): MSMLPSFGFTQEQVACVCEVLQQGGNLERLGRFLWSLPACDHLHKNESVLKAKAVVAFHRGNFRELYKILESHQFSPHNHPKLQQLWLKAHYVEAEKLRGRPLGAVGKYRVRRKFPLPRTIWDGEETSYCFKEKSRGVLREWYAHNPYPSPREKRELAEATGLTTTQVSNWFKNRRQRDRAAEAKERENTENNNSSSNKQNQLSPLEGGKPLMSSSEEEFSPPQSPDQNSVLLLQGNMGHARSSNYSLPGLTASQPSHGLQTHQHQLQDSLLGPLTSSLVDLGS
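AlphaScreen luminescence read after one hour at 37 °C in darkness. Pin-transferred compounds met GST-Six1 and His-Eya2 protein (5X stock 250 nM/500 nM) plus glutathione donor and Ni-chelate acceptor beads (5X, 50 ug/mL).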
TRPML1 ag – agonists of human TRPML1 channel; Q9GZU1; 410,000 compounds, 0.12% hits; activation, % (no concentration beside the values); TRPML1-expressing cells, Ca2+ dye fluorescence, FDSS; host cell line not named in the record; reference of the full effect not given here; in the data active = activation above about 50%; inconclusive = about 30% to 50%; inactive = below about 30%; further: 0% is about no effect; the text of the record puts the active cut at 80%
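Calcium fluorescence on an FDSS kinetic reader gave the read-out. Tet-induced TRPML1-DL cells were plated overnight, dye-loaded (Ca8 with quencher, 45-90 min, room temperature, dark), then read 110 s after compound addition, and again 110 s after 4uM final 54-4 (EC80).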
Active calls of the source: *; ? = inconclusive; . = no result given; & = joins results of further samples; [ ] = another dose, or the depositor's remark.

SMILES	D2 PAM	TRPML1 inh	PINK1 expr mod	D2 ag	Six1-Eya2 blk	TRPML1 ag
Cc1c(-n2cc(C(=O)c3cc(Cl)ccc3O)cc(C#N)c2=O)c(=O)n(-c2ccccc2)n1C	1	-10	0.1%[38.3 µM]	-4.3	-3	5.6
CCN(CC)S(=O)(=O)c1cc(NC(=O)C(CC(C)C)NC(N)=O)ccc1C (configuration not stated)	4	26	2.6%	-5.5	-4	-0.1
NC(=O)C1CCN(C(=O)c2ccc3ncsc3c2)CC1	-2	-3	1.5%	-2.2	3	-0.7
O=C(Nc1nnc(-c2ccccc2)o1)c1ccc(Cl)cc1	-14	2	-1.3%	-2.6	-5	3.4
NC(=O)CCN1CCCCC1	-18	-2	-0.4%	2.7	-1	0.5
COC(=O)[C@]12CCCCC=C1N(Cc1ccco1)C(=O)[C@H](CC(=O)NCc1cccs1)C2	.	.	0.3%	.	-11	-0.6
Cc1ccc(Cl)cc1NC(=O)C[n+]1ccc(Cc2ccc([N+](=O)[O-])cc2)cc1	5	18	?	?	-7	0.8
CCC(=O)N1CCc2cc(OC)c(OC)cc2C1COc1ccccc1OC (configuration not stated)	-3	7&-3	-0.1%&-2.6%	-2.5	0	2.7&0.1
Cc1oc(-c2ccccc2F)nc1CSCC(=O)NCc1ccc2c(c1)OCO2	8	-23	-0.3%	-3.6	-4	0.9
O=C(COc1ccccc1[N+](=O)[O-])Nc1ccc(Br)cc1	-14	12	6.2%	-3.7	-5	0.3

Pulled by compound from the entries so far:
SMILES	D2 PAM	TRPML1 inh	PINK1 expr mod	D2 ag	Six1-Eya2 blk	TRPML1 ag
CCC(=O)N1CCc2cc(OC)c(OC)cc2C1COc1ccccc1OC (configuration not stated)	-3	7&-3	-0.1%&-2.6%	-2.5	0	2.7&0.1
NC(=O)C1CCN(C(=O)c2ccc3ncsc3c2)CC1	-2	-3	1.5%	-2.2	3	-0.7
Cc1ccc(Cl)cc1NC(=O)C[n+]1ccc(Cc2ccc([N+](=O)[O-])cc2)cc1	5	18	?	?	-7	0.8

Later entries:
SMILES	D2 PAM	TRPML1 inh	PINK1 expr mod	D2 ag	Six1-Eya2 blk	TRPML1 ag
CCOC(=O)c1c(N)sc(C(O)(C(F)(F)F)C(F)(F)F)c1-c1ccc(OC)cc1OC	-17	-13	-1.6%[38.3 µM]	1.3	0	0.1
CCc1ccc(NC(=O)C(=O)NCC(c2cccnc2)N2CCN(c3ccc(F)cc3)CC2)cc1 (configuration not stated)	.	11	0.6%	.	.	-0.6
COc1cc(C2SC[C@H]3C(=O)N(c4ccccc4)C(=O)N23)cc(OC)c1OC (some centres not stated)	.	1	-0.4%	.	.	0.2
O=C(CCC(=O)N1CCOc2ccc(Cl)cc21)NCCCN1CCOCC1	-8	7	0.4%	-2.5	-2	0.2
Cc1ccn2c(=O)c(C(=O)NC3CCCCC3C)c(O)nc2c1 (configuration not stated)	-8	1	0.9%	-4.7	11	-0.2
O=C(c1ccccc1)c1nccc2ccccc12	-2	-3	1.9%	-2.7	2	1.4
CCNC(=S)NNc1nc(N2CCOCC2)nc(N2CCOCC2)n1	-4	-8	2.4%	-4.8	-11	0.8
CC(=O)OCC(=O)Nc1ccccc1C	-7	27	-1.6%	0.1	-3	-0.5
Cc1ccc(-c2nc3c(C)cc(Br)cn3c2Cc2ccccc2)cc1	.	.	-0.9%	.	16	-0.1
COC(=O)c1sccc1NC(=O)c1c(C)cc(=O)oc1C	-17	-11	-0.2%	0.2	8	0.0
CC(C)NC(=O)CS(=O)(=O)c1ccccc1	-8	-21	0.3%	-1.8	2	-0.3
COc1ccccc1NS(=O)(=O)c1cccc2cccnc12	-7	6	4.5%	-6.6	-3	-0.3
COc1ccc(CN2CCN(C(C)C)C(CCO)C2)cc1Cn1cncn1 (configuration not stated)	-6	6	-0.6%	-4.0	0	-0.7
COc1ccccc1C1CC(c2ccccc2)=NN1S(=O)(=O)c1ccccc1 (configuration not stated)	-11	.	-0.3%	-2.9	-2	.
Cc1cccc(CN2C(=O)c3ccccc3S(=O)(=O)c3ccc(C(=O)NCCCN4CCCC4)cc32)c1	-10	6	0.4%	13	1	0.3
Cc1cccc(-n2c(=O)c3c(c4cc(C)ccc4n3C)n(Cc3ccccc3F)c2=O)c1	.	-3	3.6%	.	.	-0.2
CCOC(=O)CSc1nc(-c2ccccc2)nc2ccc(F)cc12	-15	-7	-2.4%[38.3 µM]	-1.8	6	2.5
OCc1nc2ccccc2n1C/C=C/c1ccccc1	-5	27	0.0%	-2.8	-1	0.9
Cc1cc(Br)ccc1NC(=O)CN1C(=O)CCC1=O	-7	-4	-1.0%[38.3 µM]	-1.4	5	0.2
CC(=O)c1ccc(-c2nnc(CCC(=O)N(C)Cc3cnc4ccccn34)o2)s1	-5	31	1.0%	0.9	0	-1.8
CCSCC(C)(C)n1[nH]c2ccccc2c1=O	9	-5	0.5%	7.2	3	-0.2
CSc1ncc(C(=O)Nc2cccc(C)c2C)c(C)n1	-10	-7	-0.9%	-2.0	8	1.9
Cn1c(NCCN2CCCCC2)cc(=O)n(C)c1=O	-11	27	-2.7%	0.0	10	0.8
COc1ccc(CCNC(=O)Cc2ccc(NS(=O)(=O)c3ccc(F)cc3)cc2)cc1OC	-2	-6	-1.3%	7.8	1	0.7
Cn1c(=O)oc2cc(S(=O)(=O)Nc3ccc4c(c3)OCO4)ccc21	10	9	1.1%	1.6	-2	2.6
CN(C)S(=O)(=O)c1cccc(NC(=S)NC23CC4CC(CC(C4)C2)C3)c1	-11	24	?	4.1	-12	-0.3
O=C(c1cc(F)c(F)c(F)c1F)N1CCN(Cc2ccc3c(c2)OCO3)CC1	-2	-13	-1.8%	-1.0	-3	0.8
COC(=O)CCNC(=O)N1CCN(c2nnc(C)c3c(C)n(-c4ccccc4)nc23)CC1	.	8	11%	.	.	2.2
CC(=O)Nc1ccccc1-c1nc2ccccc2n(C(C)C(=O)Nc2ccccc2C(F)(F)F)c1=O (configuration not stated)	.	-21	0.9%	.	.	1.1
O=C(O)CCC(=O)Nc1ccc(N2CCOCC2)cc1	0	-4	2.3%	-2.2	-3	0.3
Cc1cc(N2CCC(C)CC2)nc2ccc(N3C(=O)CCC3=O)cc12	-10	-1	-0.5%	-2.3	8	-0.9
CCOc1cc2[nH]c(=S)n(Cc3ccc(C(=O)NCCCN4CCOCC4)cc3)c(=O)c2cc1OCC	-25	-13	5.1%	-1.3	-1	0.1
O=C(Nc1cccc(OCC(=O)N2CCOCC2)c1)C1CCCCC1	-6	5	-3.2%[38.3 µM]	0.4	-4	0.0
COc1ccc(CCNC(=O)COc2ccc(S(=O)(=O)NC(C)C)cc2Cl)cc1OC	?	-61*	9.4%[38.3 µM]	4.0	-8	0.2
Cc1ccc(CNC(=O)COC(=O)c2c(C)noc2C)cc1	-13	8	-5.4%	-1.0	-1	0.3
CCOc1ccc(NC(=O)N2CCC(NC(=O)c3ccco3)CC2)cc1	21	-6	-0.8%	-2.6	-1	0.0
Cc1cc(C)n(CC(=O)c2ccccc2)c(=O)c1C#N	-8	3	-0.8%	-3.2	6	-0.1
Cc1ccn2c(NC3CCCC3)c(-c3cccs3)nc2c1	-3	2	-0.1%	0.5	0	1.3
CCOC(=O)C1=NOC2(C1)C(=O)Nc1ccc(OC)cc12 (configuration not stated)	.	.	0.6%	.	-1	-0.8
Cc1cc(C)c(NC(=O)Cn2c(=O)n(CCC(C)C)c(=O)c3cccnc32)c(C)c1	.	-6	0.5%	.	.	0.5
CCOC(=O)N1CCN(C(=O)CS(=O)Cc2nc(-c3ccc(OC)c(OC)c3)oc2C)CC1 (configuration not stated)	-13	13	0.5%	-2.5	-2	0.1
Cc1ccc(-c2nnc(-c3cccc4ccccc34)o2)cc1	-5	1	2.8%	1.0	11	-0.2
Cc1cccc(N(C)C(=O)Cc2c(C(=O)O)[nH]c3ccccc23)c1	.	0	0.4%	.	.	0.6
Cc1cccc(C)c1-n1nnnc1C(c1ccnc2ccccc12)N1CCOCC1 (configuration not stated)	.	.	-0.3%	.	1	-0.5
CC(Oc1ccc(Br)cc1)C(=O)NCC1(N2CCCCC2)CCCCC1 (configuration not stated)	-9	-5	11%	-5.2	6	-0.2
Cc1cc(NC(=O)CSc2nc(-c3ccc(Cl)cc3)cs2)no1	4	6	?	-0.8	0	1.5
CC(=O)c1cccc(NC(=S)N2CCN(S(=O)(=O)c3ccc(F)cc3)CC2)c1	-4	25	0.8%	-4.3	-11	1.0
COc1ccc(CCCc2nnc(SCC(=O)Nc3ccc(OC)cc3)o2)cc1	-5	9&46	-1.7%&-0.8%	0.7	-11	7.7&4.7
COc1ccc(Cl)cc1NC(=O)CC1S/C(=N/N=C2CCCCCC2)NC1=O (configuration not stated)	-13	-6	-1.2%	-2.2	-8	-0.2
COc1ccc(CNC(=O)c2cc(-c3ccc(OC)c(OC)c3)on2)cc1	-3	-11	?	1.9	0	0.6
Following part
SMILES	D2 PAM	TRPML1 inh	PINK1 expr mod	D2 ag	Six1-Eya2 blk	TRPML1 ag
CCC(=O)NCCc1nc2ccccc2n1CC	-7	-3	-0.4%	-8.0	4	-0.1
Cc1cc(C)n(CCc2nc(-c3cccs3)cs2)n1	2	-8	3.1%	-2.6	6	1.8
COc1cccc(OC)c1C(=O)NC(=O)Nc1c(F)cc(F)cc1F	-12	14	0.9%	-1.7	-13	-0.1
COc1ccc(CNC(=O)COC(=O)CN2C(=O)NC3(CCCC3)C2=O)cc1	-5	-7	0.2%	-4.1	-2	0.4
CCN(CC)CCNC(=O)c1ccccc1C(=O)c1ncc[nH]1	-6	-26	2.0%	-2.1	6	0.0
Cc1c(/C(O)=C2/C(=O)C(=O)N(CCN3CCOCC3)C2c2ccco2)cnn1-c1ccccc1 (configuration not stated)	-15	19	-0.4%	-9.3	3	-0.6
C/C(=N\Nc1cccc([N+](=O)[O-])c1)c1cc(F)ccc1O	-16	8	5.1%	-12	-4	1.4
COc1ccc(-c2nc3nc(C)cc(N4CCN(c5cccc(C(F)(F)F)c5)CC4)n3n2)cc1	.	-21	-0.7%	.	.	-1.3
CCc1ccc(C(O)c2ncc(-c3cccc(F)c3)[nH]2)cc1 (configuration not stated)	-7	.	0.7%	2.3	-12	-0.7
Cc1ccc(S(=O)(=O)Nc2ccc(C(=O)N3CCCC3)cc2)cc1	-3	40	0.2%	-1.6	1	-0.5
COc1cccc(-c2nc(SCC(=O)NCC3CCCO3)c(-c3ccc(F)cc3)[nH]2)c1 (configuration not stated)	.	-11	-0.1%	.	.	0.3
Nc1cccc(C#Cc2ccc3c(=O)c4ccccc4oc3c2)c1	-9	-11	2.8%	-1.3	4	-1.1
Cc1nc(Nc2ccccc2Br)c2nnn(Cc3ccccc3)c2n1	-44	53	9.6%	-1.0	-6	2.2

One compound at a time, as listed above.
CCc1ccc(C(O)c2ncc(-c3cccc(F)c3)[nH]2)cc1 (configuration not stated) across the screens: D2 PAM = -7; TRPML1 inh = .; PINK1 expr mod = 0.7%; D2 ag = 2.3; Six1-Eya2 blk = -12; TRPML1 ag = -0.7
COc1cccc(-c2nc(SCC(=O)NCC3CCCO3)c(-c3ccc(F)cc3)[nH]2)c1 (configuration not stated) across the screens: D2 PAM = .; TRPML1 inh = -11; PINK1 expr mod = -0.1%; D2 ag = .; Six1-Eya2 blk = .; TRPML1 ag = 0.3
